# Compound activity from PubChem BioAssay.
# UUG fidelity = yeast start codon fidelity modulation. S. cerevisiae UUG-firefly luciferase reporter, luminescence/redox ratio. activity score, % at 18.7 µM. hit rate 0.13% among 350,000;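 active = replicate mean at a twofold rise or more, about +100% in these data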;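 note: firefly luciferase made from a UUG start codon reports start codon fidelity; reporter light over untreated wells divided by growth signal over untreated wells; some hits fall short of that in this replicate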
# CSC inhib = blocks cancer stem cells; cancer stem cell-like cells viability, luminescence; inhibition, % at 7.5 µM; hit rate 1.1% among 300,000; AID 2717;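 active = mean at 75% or more and at least half the replicates too; inconclusive = mean and replicates disagree; tested in HMLE shEcad cells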;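 note: 0% = median of negative and 100% = median of positive control wells; the first replicate is given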
# Rce1 inh = yeast Ras-converting enzyme inhibition. Q03530. yeast membranes, quenched prenylated peptide cleavage fluorescence. calls only. hit rate 0.27% among 290,000. AID 2563;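 active = fall in fluorescence gain of 50% or more versus controls, with final raw signal at or below 3038400; inconclusive = same 50% fall but final raw signal above 3038400; inactive = fall in fluorescence gain under 50%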;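 note: plate controls were neutral control wells for no effect and wells lacking membranes for full effect; tested at 10 µM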
# Target sequence (Q03530 whole entry, looked up): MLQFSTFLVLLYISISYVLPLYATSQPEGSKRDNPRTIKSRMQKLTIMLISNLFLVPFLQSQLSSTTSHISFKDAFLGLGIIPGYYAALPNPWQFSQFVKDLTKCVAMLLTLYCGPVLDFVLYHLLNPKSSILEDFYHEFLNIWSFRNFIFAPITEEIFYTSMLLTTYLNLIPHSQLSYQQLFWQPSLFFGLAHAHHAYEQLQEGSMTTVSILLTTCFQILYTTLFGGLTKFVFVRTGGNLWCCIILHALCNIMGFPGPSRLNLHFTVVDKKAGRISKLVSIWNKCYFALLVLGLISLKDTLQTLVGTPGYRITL
# eIF4H FP inh = inhibitors of RNA binding by human eIF4H; Q15056; eIF4H fluorescence polarization binding assay; inhibition, % at 35 µM; hit rate 0.94% among 290,000; AID 2012;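 active = 50% or more with normal probe brightness, or confirmed in later tests; inconclusive = above 50% with abnormal brightness, or retests that disagree; inactive = below 50% or failed in later tests; about a fifth of its hits are not listed in these tables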;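 note: calls also rest on retests at 20 µM and on dose response follow-up; 0% = protein and probe with vehicle and 100% = probe without protein; strong numbers were not always called active; many hits fall short of the cut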
# HIV Env fusion = HIV envelope-mediated fusion inhibition; AID 651610; hit rate 1.1% among 360,000; inhibition, % at 12.3 µM; HeLa-JRFL Env/CEM21 cell fusion, luciferase;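 active = mean replicate inhibition score of at least 50 and every replicate individually at or above 50; inconclusive = only one of the two criteria met; inactive = mean below 50 and not all replicates reaching 50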;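 note: 0% = plate neutral controls and 100% = maraviroc near 300 nM; one replicate is shown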
# MT1-MMP act inh = blocks activation of human MT1-MMP; GFP/RFP ratio change, % at 20 µM; hit rate 0.061% among 360,000; HT1080 RFP-PRO-GFP cells, GFP/RFP ratio fluorescence, overnight; percent of plate control window, DMSO zero; P50281;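 active = GFP/RFP ratio change of at least 30% with cell ATP level not reduced by more than half and red fluorescence within 50% of control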; note: strong numbers were not always called active
#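 Test system: HT1080 cells expressing an RFP-PRO-GFP fluorescent reporter construct / Compound dosing: single-point 20 µM compound, 1% DMSO / Schedule: cells overnight before dosing, compound overnight, 37 °C, 5% CO2 / Evaluation: GFP/RFP fluorescence ratio / Control set: DMSO and RFP-L50D-GFP cell wells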
# PABP FP inh = PABP-poly(A) binding inhibition; P11940; PABP-poly(A) RNA binding, fluorescence polarization; inhibition, % at 35 µM; hit rate 1% among 290,000; AID 2014;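 active = 50% or more with normal probe brightness, or confirmed in later tests; inconclusive = above 50% with abnormal brightness, or retests that disagree; inactive = below 50% or failed in later tests; about a fifth of its hits are not listed in these tables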;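 note: calls also rest on retests at 20 µM and on dose response follow-up; controls were probe without protein and protein plus probe with vehicle; some compounds called inactive have numbers as strong as hits; many hits fall short of the cut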
# eIF4H FP inh retest = second read-out of eIF4H FP inh, no call of its own (marks repeat the call); inhibition, %; compound at 20 µM; confirmation average;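 mean of two retest wells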
# PABP FP inh retest = recorded beside PABP FP inh, whose call it bears; inhibition, %; compound at 20 µM; confirmation repeats;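 mean of two retest wells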
# MT1-MMP act inh RFP = also measured in MT1-MMP act inh; calls as there; RFP signal change, %; measured here: RFP expression control read;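 0 = vehicle wells; hits needed this value within 50% of zero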
# Starred values were filed as active, the others as inactive; i = inactive; u = inconclusive; x = no result given; & = joins results of further samples. These rows are one share of the data; the hit share may differ from the screen's.
SMILES,UUG fidelity,CSC inhib,Rce1 inh,eIF4H FP inh,HIV Env fusion,MT1-MMP act inh,MT1-MMP act inh RFP,PABP FP inh,others
Cc1ccc(SC(C)c2nc(-c3cccnc3)no2)cc1 (stereo not given),x,15,i,-1,x,4,-1,1,
C[C@@H]1CCCCO[C@@H](CN(C)C(=O)CCCN(C)C)[C@@H](C)CN([C@H](C)CO)C(=O)c2cc(NC(=O)CCC(F)(F)F)ccc2O1,10&-8,x,x,x,-24,1,4,x,
COCCNC(=S)N1CCN(c2ccc(Cl)cc2)CC1,x,16,i,8,4,1,0,3,
CC(C)Cn1cc(C(=O)NCCCN2CCCC2=O)c2c3ccccc3n(C)c2c1=O,11,3,i,-1,-12,-5,-2,1,
Cn1c(SC2CCCCC2=O)nnc1-c1ccncc1 (stereo not given),-14,10,i,-1,-109,6,6,-3,
Cc1ccc(C(=O)NCC(=O)OC(C)C(=O)NC2CCCc3ccccc32)cc1 (stereo not given),-17,2,i,x,13,3,2,x,
CCN(CC)CCOC(=O)c1ccc(NC(=O)c2cccc(C)c2[N+](=O)[O-])cc1,x,3,i,5,-32,0,4,-5,
Cc1ccc(CSc2nnc(-c3ccncc3)n2N)cc1,-9,-1,i,0,4,4,0,-4,
Cc1ccc(C(=O)Oc2ccccc2N2C(=O)C3C4CCC(C4)C3C2=O)cc1 (stereo not given),-7,-10,i,1,-7,3,9,-8,
Cn1c(=O)c2c(nc(N3CCCCCC3)n2CC(=O)c2ccccc2)n(C)c1=O,-24,-14,x,-3,-260,9,2,-5,
CC(=O)N1CCC(C(=O)Nc2cc(S(=O)(=O)N3CCCCC3)ccc2C)CC1,-10,x,x,x,6,0,3,x,
COc1ccc(C2=NOC(C(=O)Nc3ccc4c(c3)OCO4)C2)cc1OC (stereo not given),x,-6,x,-1,3,0,1,-2,
CC(/C=N/NC(=O)Cn1cnc2c1c(=O)n(C)c(=O)n2C)=C\c1ccccc1,x,-7,i,-7,-23,3,4,1,
O=C(CNC(=O)c1ccco1)N/N=C/c1cc(Br)ccc1O,-19,x,i,15,4,3,0,1,
Cc1ccc(-c2nnn(CC(=O)NC3CC4CCC3C4)n2)cc1 (stereo not given),-12,13,i,-6,35,8,-3,-8,
O=C(COC(=O)c1ccccc1NC(=O)C1CC1)c1ccc2c(c1)OCCO2,x,-5,i,-10,x,x,x,-8,
COc1cccc(C(=O)N2CCN=C2SCc2cccnc2)c1OC,-26,-7,i,-7,-4,2,0,10,
COc1ccc([C@@H]2C[C@H]3[C@@H](CN2S(=O)(=O)c2ccccc2)C(=O)C[C@@H](c2ccc(C)cc2)N3S(=O)(=O)c2ccc(C)cc2)cc1,-19,x,x,x,-23,1,1,x,
Cc1c(C(=O)NCc2cccc(C(F)(F)F)c2)sc(=O)n1Cc1ccc(C(=O)N(C)C)cc1,-3,x,x,x,-6,1,-15,x,
CCC(C)(C(=O)Nc1ccc(OC)cc1)N(C)C(=O)Cn1nnnc1N (stereo not given),-1,x,i,-5,-1,2,6,5,
Cn1c(Cn2c(=O)sc3ccccc32)nnc1SCC(=O)NCc1ccccc1Cl,-25,-8,i,2,-11,-2,-1,-8,
O=C1CCc2cc(S(=O)(=O)N3CCCC3C(=O)NC3CCCCCCC3)ccc2N1 (stereo not given),8,10,i,-6,9,1,0,1,
O=C(Nc1nnc(SCC(=O)N2CCCCC2)s1)c1ccccc1F,-14,-6,i,-8,-7,1,4,7,
Cc1cccc(NC(=O)CN2C(=O)CCSc3ccc(S(=O)(=O)N4CCOCC4)cc32)c1C,29,-14,i,25,1,0,-1,5,
Cn1nnc(NC(=S)NC(=O)/C=C/c2ccco2)n1,x,-6,i,88*,-10,-11,3,82*,
CNC(=O)/C=C/c1cccc(C(F)(F)F)c1,x,10,i,-1,5,2,2,-8,
O=C(NCc1cccc(C(F)(F)F)c1)c1csc(COCCO)n1,1,x,x,x,4,-5,5,x,
Cc1cc(/C=C2\SC(=S)NC2=O)c(C)n1-c1ccccc1,-22,13,i,4,-153,-35,-4,-1,
CC[C@H](C)Cc1cn([C@@H](CCCCN)C(=O)NCCCCCCCCCCC(=O)N2CCNCC2)nn1,-8,0,i,x,1,-6,-8,x,
CC(=O)N1N=C(c2cccs2)CC1c1ccc(C)o1 (stereo not given),1,-13,i,0,-6,-1,1,3,
CC(C)(C)C(=O)NC(=S)NCCc1ccccc1,-17,0,i,-6,-94,-8,-7,0,
Cc1ccc(N(CC(=O)Nc2cccc(Cl)c2C)S(C)(=O)=O)cc1,1,-1,i,6,10,-4,0,-3,
CC(C)C(=O)NC(Nc1cc(C(F)(F)F)ccc1Cl)C(Cl)(Cl)Cl (stereo not given),-6,x,i,6,27,-1,-6,2,
CCOC(=O)c1c(S(=O)(=O)N2CCN(c3ccc(C(C)=O)cc3)CC2)c(C)n(C)c1C,8,-16,i,-10,-6,3,2,-3,
CCOC(=O)C1=C(C)NC(SCC(=O)Nc2cc(C)on2)=C(C#N)C1c1cccs1 (stereo not given),-3,x,i,-7,46,-1,-3,2,
Cc1ccc(C(=O)COC(=O)c2nc3nccc(C)n3n2)c(C)c1,-4,x,x,x,4,-4,2,x,
O=C(c1cc(-c2ccccc2)nn1-c1ccccc1)N1CCN(S(=O)(=O)c2cccc(F)c2)CC1,20,-9,i,x,-6,-3,-4,x,
COc1ccc(OC(C)C(=O)NC2CC(C)(C)NC(C)(C)C2)cc1 (stereo not given),-16,-9,i,-12,u,-1,-2,-1,
COC(=O)c1ccc(-c2ccco2)n1Cc1cc(C)ccc1C,x,5,i,-5,-37,-1,8,-9,
Cc1cccc(CNC(=O)c2ccc3c(c2)N(C)CCS3)c1,-6,-13,i,4,0,-1,1,0,
Cc1cnc(C(=O)Nc2ccc3c(c2)CCC3)cn1,-14,16,i,1,x,12,18,1,
C[C@@H]1CN([C@@H](C)CO)C(=O)CCCn2cc(nn2)CO[C@H]1CN(C)C(=O)OCc1ccccc1,-11&1,x,x,x,7,4,5,x,
O=C(NCCCN1CCOCC1)c1ccc2c(=O)n(CCc3ccccc3)c(=O)[nH]c2c1,-1,-5,i,-4,-12,3,2,-5,
COc1ccc(-n2c(SCC(=O)NCC3CCCO3)nc3n[nH]c(C)c3c2=N)cc1 (stereo not given),-20,-6,i,-5,x,1,-2,-1,
COCCC(=O)NC1CCCc2c1cnn2-c1cccc(C)c1C (stereo not given),-12,-4,i,1,-11,2,-8,-1,
O=C1Nc2ccccc2C1=Nc1ccc(F)cc1,-11,x,i,-10,x,6,11,2,
Cc1ccsc1C(=O)OCC(=O)Nc1nnc(-c2ccccc2)o1,-39,14,x,x,5,1,3,x,
CC1Cc2ccccc2N1S(=O)(=O)c1cccc(C(=O)NCCCn2ccnc2)c1 (stereo not given),-17,-8,i,-4,3,1,-8,15,
Cc1cccc(NC(=S)N2CCN(C(=O)c3ccco3)CC2)c1,-15,2,i,11,3,2,1,6,
CC1(C(=O)NCc2ccco2)Cc2c(-c3ccccc3)ccnc2O1 (stereo not given),-42,x,x,x,-17,-2,-16,x,
C[C@H](CO)N1C[C@H](C)[C@@H](CN(C)Cc2ccc(-c3ccccc3)cc2)Oc2c(NS(=O)(=O)c3cccs3)cccc2C1=O,-3&14,-7,x,x,-1,6,-2,x,
c1ccc(CN=C2CCCc3ccccc3N2)cc1,-12,x,x,x,-12,2,3,x,
O=C(COc1ccccc1)NC(Cc1c[nH]c2ccccc12)C(=O)O (stereo not given),-12,-12,i,-5,-11,1,4,6,
Cc1[nH]nc2c1C(c1ccccc1F)CC(=O)N2 (stereo not given),4,6,i,-4,-44,11,1,-4,
COc1ccc(C2CC(c3cccs3)=NN2C(=O)CCC(=O)O)cc1OC (stereo not given),16,0,x,10,0,2,2,-13,
O=C(NC1=NCCS1)c1ccc(Cl)c(Cl)c1,-21,-7,i,-7,-92,5,-2,1,
NC(=O)c1sc2nc(-c3ccccc3)c3c(c2c1N)CCCC3,15,-5,i,-2,17,-7,1,-3,
CCOC(=O)C1CCCN(S(=O)(=O)c2cc3c4c(c2)CCC(=O)N4CCC3)C1 (stereo not given),1,x,i,x,10,-5,-19,x,
CCCCc1ccc(NC(=S)Nc2ccc(Nc3ccc(OC)cc3)cc2)cc1,x,-6,i,-2,3,16,-2,18,
CCn1cc(NC(=O)Nc2ccccc2C(=O)OC)c(C(N)=O)n1,-13,3,i,7,-35,2,1,3,

# Next section.
SMILES,UUG fidelity,CSC inhib,Rce1 inh,eIF4H FP inh,HIV Env fusion,MT1-MMP act inh,MT1-MMP act inh RFP,PABP FP inh,others
CCn1c(C)c(C(C)=O)c(N2CCN(c3ccc(OC)cc3)CC2)nc1=S,x,-9,x,83,19,-17,8,33,eIF4H FP inh retest=43;PABP FP inh retest=28
O=C(NCc1ccccc1)C1CCCN1S(=O)(=O)c1ccc(Cl)cc1 (stereo not given),-7,-16,i,16,12,-2,-1,1,
Cn1c(SCc2cccc3ccccc23)nnc1-c1ccco1,-12,x,i,2,x,3,6,9,
CCOC(=O)Cn1c(=O)oc2cc(S(=O)(=O)N3CCN(c4ccccn4)CC3)ccc21,-19,3,i,-1,1,-1,2,-2,
O=C(c1ccc(Br)o1)N(c1ccccn1)C1CCCCC1,-1,4,i,56*,1,-3,0,-4.7*,eIF4H FP inh retest=100*;PABP FP inh retest=75*
CSc1nnc(-c2ccc(O)cc2)n1C,-17,-1,i,-5,-48,-3,-3,5,
O=C(NCCCN1CCOCC1)c1cc(-c2ccc(Br)cc2)nc2ccccc12,x,3,i,x,-5,-3,2,x,
Cc1cc(C(=O)COC(=O)c2ccc(NC(=O)CC#N)cc2)c(C)n1CCc1ccc(F)cc1,4,-9,x,x,1,-6,1,x,
COc1ccc(N(CC(=O)N2CCCC2)S(C)(=O)=O)cc1,-24,-6,i,-4,-8,4,7,-2,
O=Cc1ccc(-c2ccccc2C(=O)O)o1,x,-9,i,-2,7,5,-2,5,
Cc1ccc(CNC(=O)c2c(C)cc(=O)oc2C)cc1,-8,-2,i,-2,-32,0,0,6,
COc1cc(/C=N/N2C(=O)CSC2=S)cc(Br)c1O,-10,x,x,18,-3,-43,59,-6,
CCc1cccc(NC(=O)Cn2cccc2)c1,x,2,i,-2,-4,3,-3,0,
O=C(COC(=O)CNS(=O)(=O)c1ccc(Br)cc1Cl)NCCc1ccccc1,-11,-4,i,-8,11,0,4,3,
COc1cc2nc(Nc3ccc(C)c(Cl)c3)nc(N)c2cc1OC,-19,106*,i,0,5,-1,-11,-2,
CC(=O)Nc1cccc(C(=O)OCc2ccc([N+](=O)[O-])cc2)c1,x,-4,i,-13,-3,3,2,-9,
Cc1cc(C(C)C)n2c(nc3ccccc32)c1C#N,x,3,i,-1,x,x,x,6,
O=[N+]([O-])c1cc(S(=O)(=O)N2CCCC2)ccc1N/N=C1/CCCc2ccccc21,x,6,i,4,-1,6,-3,-3,
CCOC(=O)CC1C(=O)NCCN1c1nc2ccc(C)cn2c(=O)c1/C=C1\SC(=S)N(CC(C)C)C1=O (stereo not given),x,20,i,u,x,-35,57,u,

# 2 records drawn at random from those above:
SMILES,UUG fidelity,CSC inhib,Rce1 inh,eIF4H FP inh,HIV Env fusion,MT1-MMP act inh,MT1-MMP act inh RFP,PABP FP inh,others
O=C(NCc1ccccc1)C1CCCN1S(=O)(=O)c1ccc(Cl)cc1 (stereo not given),-7,-16,i,16,12,-2,-1,1,
Cn1c(SCc2cccc3ccccc23)nnc1-c1ccco1,-12,x,i,2,x,3,6,9,
